T cruzi inh: T. cruzi replication inhibition | T. cruzi beta-gal in NIH3T3, luminescence, 90 h | inhibition, % (concentration not given with the values) | actives 1.4% (n = 300,000);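 active = mean inhibition across valid replicates above about 55%, limit read from the data; inconclusive = mean below that limit but half or more replicates reach it; inactive = mean below it, under half of replicates reach it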;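 note: signal also drops with host cell toxicity which is not excluded here; 0% = plate median of DMSO wells and 100% = zero luminescence signal; higher percent means less beta-gal luminescence so fewer parasites; stock transfer was 50 nL into about 50 µL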
FGF22 binding: FGF22 (human) thermal shift binding | Q9HCT0 | recombinant FGF22 thermal shift, SYPRO orange fluorescence; percent of sucrose octasulfate shift, DMSO zero | calls only at 9.99 µM | actives 1.5% (n = 340,000);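 active = melting point raised past a set limit in the mean and every replicate; inconclusive = no clear call; three in four hits are not shown here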
Target sequence (Q9HCT0 whole entry, looked up): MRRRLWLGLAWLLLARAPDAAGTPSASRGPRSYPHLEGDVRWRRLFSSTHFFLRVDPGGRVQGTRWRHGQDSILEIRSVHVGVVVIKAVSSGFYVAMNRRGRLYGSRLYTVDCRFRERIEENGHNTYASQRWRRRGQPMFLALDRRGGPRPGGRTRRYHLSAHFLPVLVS
Ecoli rRNA inh: selective bacterial rRNA inhibition in E. coli; E. coli WT GFP vs humanized-ribosome RFP mutants, fluorescence, 24 h; stronger effect = lower value; DMSO median 0, no signal -100; GFP signal change (wild-type ribosome), % (no concentration beside the values); actives 1.6% (n = 350,000); AID 720706;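 active = significant combined selectivity score with lowered wild-type GFP, culture density cut under 30%, mutant RFP and density less affected; inactive = any of these conditions unmet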; note: one replicate is shown; some compounds called inactive have numbers as strong as hits
Calb FLC: C. albicans growth modulation with fluconazole | C. albicans CaCi-2 (fluconazole-resistant clinical isolate) + fluconazole, Alamar Blue growth, 48 h | growth inhibition, % (test concentration not listed) | actives 0.57% (n = 300,000) | AID 1979;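 active = most replicates above 75%; inconclusive = exactly half above 75%; inactive = most below 75%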;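 note: all wells also contain fluconazole at 8 µg/ml as a sub-toxic cotreatment; 0% = median of DMSO wells and 100% = median of geldanamycin control wells; wells of about 8 µL received 7.5 nL stock; the first replicate is given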
RanGTP-Impb inh: disruptors of Ran-importin-beta complex formation – biochemical, FRET, CFP-Ran, YFP-importin-beta, homogeneous, primary screen | inhibition, % (no concentration beside the values) | actives 1.1% (n = 300,000) | cell-free CFP-Ran/YFP-importin-beta FRET ratio;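 active = most replicates above 15%; inconclusive = exactly half above 15%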;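 note: 0% = DMSO wells and 100% = Ran loaded with GDP instead of GTP; wells of about 40 µL received 100 nL stock; the first replicate is given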
Beta cell apopt: blocks beta cell apoptosis | INS-1E cytokine-induced death, ATP luminescence, 48 h; percent of positive-control rescue, neutral wells zero | protection from apoptosis, % (no concentration beside the values) | actives 0.8% (n = 300,000);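 active = all replicates at 75% or more, or half of them and the mean; inconclusive = half reach 75% but not the mean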;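 note: 0% = cytokine-treated negative control wells and 100% = positive control rescue; higher means more ATP so stronger rescue from cytokine killing; wells of about 40 µL received 100 nL stock; the first replicate is given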
ALR inh: inhibitors of human sulfhydryl oxidase ALR; purified ALR, DTT oxidation, H2O2 HRP-luminol luminescence; inhibition, % (concentration not given with the values); actives 3.8% (n = 290,000); AID 485317;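 active = mean and each replicate at 75% or more; inconclusive = only one of the two met; inactive = neither met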;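 note: stock transfer was 7.5 nL into about 7.5 µL; 0% = neutral wells and 100% = wells with inactivated enzyme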
Target sequence (P55789 whole entry, looked up): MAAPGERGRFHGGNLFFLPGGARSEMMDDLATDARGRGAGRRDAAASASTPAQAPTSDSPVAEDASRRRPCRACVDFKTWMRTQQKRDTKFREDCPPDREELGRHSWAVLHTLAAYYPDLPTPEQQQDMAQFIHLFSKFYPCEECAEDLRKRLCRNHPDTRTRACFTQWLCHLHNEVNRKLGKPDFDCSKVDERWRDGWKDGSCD
AF4-AF9 inh: MLL-AF4/AF9 protein interaction inhibition; actives 0.47% (n = 350,000); inhibition, % at 10 µM; P42568; AlphaScreen, biotin-AF4 peptide binding to FLAG-AF9;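 active = every replicate reaching a set inhibition limit, whatever the replicate mean, cut at about 25% in these data; inconclusive = mean inhibition reaches that limit but some replicates miss it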;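 note: 0% = plate neutral control median and 100% = total signal loss; the record names both 10 and 1 µM as test concentration; the first replicate is given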
Target sequence (P42568 whole entry, looked up): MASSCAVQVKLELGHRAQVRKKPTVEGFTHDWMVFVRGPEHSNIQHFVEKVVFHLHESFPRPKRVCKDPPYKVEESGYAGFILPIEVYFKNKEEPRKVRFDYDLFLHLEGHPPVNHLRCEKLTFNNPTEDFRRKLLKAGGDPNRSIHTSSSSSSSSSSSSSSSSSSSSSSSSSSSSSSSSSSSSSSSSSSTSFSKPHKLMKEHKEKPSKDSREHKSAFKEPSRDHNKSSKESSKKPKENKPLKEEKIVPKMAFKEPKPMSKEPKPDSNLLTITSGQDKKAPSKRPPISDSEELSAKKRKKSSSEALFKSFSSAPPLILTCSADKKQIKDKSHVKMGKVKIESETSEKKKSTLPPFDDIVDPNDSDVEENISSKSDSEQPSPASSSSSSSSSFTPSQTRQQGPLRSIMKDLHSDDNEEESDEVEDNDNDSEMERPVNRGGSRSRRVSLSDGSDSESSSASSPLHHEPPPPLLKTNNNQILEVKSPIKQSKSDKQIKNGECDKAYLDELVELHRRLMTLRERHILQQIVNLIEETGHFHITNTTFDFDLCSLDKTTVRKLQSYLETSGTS
Ecoli rRNA inh OD600: further read-out of Ecoli rRNA inh, marked with its call; OD600 change, %; measured here: OD600 growth;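 optical density of the mix in the first replicate; 0 = DMSO median and -100 = no signal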
Ecoli rRNA inh RFP: recorded beside Ecoli rRNA inh, whose call it bears; RFP signal change, %; measured here: RFP humanized mutant strains;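 first replicate; 0 = DMSO median and -100 = no signal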
The depositor's hits bear a star; i = inactive; ? = inconclusive; . = not tested or not shown. The list is partial, so the mix of outcomes need not match the whole.

mol,T cruzi inh,FGF22 binding,Ecoli rRNA inh,Ecoli rRNA inh OD600,Ecoli rRNA inh RFP,Calb FLC,RanGTP-Impb inh,Beta cell apopt,ALR inh,AF4-AF9 inh
NS(=O)(=O)c1cccc(NC(=O)c2cc(-c3cccs3)nc3ccccc23)c1,16,i,-23,-28,1.9,35,2.1,-5,-2,7.3
Cc1ccc(C(=O)NC(=S)N2CCCCCC2)cc1,.,i,3,-3,5.5,.,.,-1,.,-0.3
COC(=O)c1ccccc1NC(=O)CN(c1c(C)cccc1C)S(C)(=O)=O,7,i,3,2,-1.7,3,6.8,-2,12,0.4
Cc1ccc(-n2nnnc2SCC(=O)N2CCN(C(=O)c3ccco3)CC2)c(C)c1,4,.,.,.,.,-2,4.4,-2,-16,.
S=C(NC1CC1)N1CCN(c2ccc(Cl)cc2)CC1,3,i,0,-5,-2.6,4,?,1,98*,-8.2
Cc1noc(C)c1S(=O)(=O)N1Cc2ccccc2CC1C(=O)N(C)C (stereo not given),-1,i,10,18,1.8,-3,0.1,-10,-1,-1.2
O=C1CCCN1c1ccc(S(=O)(=O)N2CCCCC2)cc1,-2,i,8,4,0.1,-6,2.9,-3,.,0.0
CC(=O)N(C)c1ccc(NC(=S)Nc2cccc3ccccc23)cc1,3,i,3,-4,4.6,8,3.9,5,-101,5.5
Cc1ccc(C)c(NC(=S)N2CCN(c3cccc(C(F)(F)F)c3)CC2)c1,8,.,.,.,.,2,1.9,-7,-14,.
COc1ccc(-n2cc(CNC3CCN(C)CC3)c(-c3cccc(F)c3)n2)cc1,17,i,0,10,4.0,-21,5.8,1,-21,4.5
Cc1ccc(S(=O)(=O)/N=C(\CSC(N)=O)Nc2ccccc2)cc1,-4,.,.,.,.,-1,7.7,-1,-19,.
Cc1sc2ncn(CC(=O)N(CC(=O)NC3CCCC3)Cc3cccs3)c(=O)c2c1C,15,i,8,4,-2.6,-9,3.0,-1,-5,-42
O=C(Nc1ccn([C@H]2CC[C@@H](CO)O2)c(=O)n1)c1ccccc1,-17,i,.,.,.,5,2.2,-5,-9,0.0
COC(=O)COc1ccc(S(=O)(=O)Nc2ccc3c(c2)OCCO3)cc1Cl,-16,i,-10,-16,14,?,2.3,-1,-5,-1.0
Fc1ccccc1OCCSc1ncnc2nc[nH]c12,-22,i,-6,-8,-0.5,25,2.9,9,8,-7.0
Cc1c(Cl)cc(-n2cnnn2)cc1[N+](=O)[O-],16,i,0,-1,1.3,3,-3.2,-8,-22,-1.9
CCOc1cccc2sc(N(CCCN(C)C)C(=O)c3ccc(S(=O)(=O)N(C)Cc4ccccc4)cc3)nc12,21,i,-39*,-23*,0.7*,-4,-0.6,-1,-4,18
CC(=O)/C(N=Nc1ccc2c(c1)OCO2)=C(\C)O,4,.,.,.,.,14,-0.7,2,5,.
CCOC(=O)CCCN1CC(O)=C(c2nc3ccccc3s2)C1=N,3,i,2,-2,3.1,6,-2.5,0,-17,2.1
CN(CCC#N)c1ncnc2scc(-c3ccccc3)c12,8,.,.,.,.,0,5.0,-2,-3,.
CCOc1cc(C(=S)N2CCOCC2)ccc1OC(=O)c1ccc(C)cc1,-5,i,-23,-13,0.4,-6,2.5,-1,-34,7.1
COc1ccnc(CS(=O)c2nc3cc(C(O)(F)F)ccc3[nH]2)c1OC (stereo not given),-7,i,-6,-11,-8.5,9,-0.1,-1,-15,-4.8
CC(C)CN(C(=O)COC(=O)COc1ccc2ccccc2c1)c1c(N)n(Cc2ccccc2)c(=O)[nH]c1=O,-1,i,-1,5,-2.0,-5,4.9,-3,-6,-2.9
Clc1ccc2c(NCc3ccccc3)ccnc2c1,3,i,1,-10,-1.0,3,?,39,-3,2.0
Cc1cccc2nc(CNc3ccc(F)cc3)cn12,-15,.,.,.,.,10,4.2,4,71,.
C#CCSc1n[nH]c(=O)n1-c1cccc(C(F)(F)F)c1,3,i,9,12,-2.3,17,1.6,-6,-4,0.9
CC(=O)N/C(=C/c1ccc2c(c1)OCO2)C(=O)NCCO,-17,.,.,.,.,-15,-0.8,4,-1,-1.8
O=C(CCCN1C(=O)c2cccc3cccc(c23)C1=O)N1CCc2ccccc2C1,0,.,.,.,.,6,1.3,-1,1,.
CC1(C)NC(=O)N(CC(O)COC2CCCCC2)C1=O (stereo not given),-2,.,.,.,.,-9,2.6,-3,-8,.
O=C(COc1ncnc2ccccc12)NC(=O)NCc1ccccc1,53,.,.,.,.,4,-1.5,-1,-7,.
COc1cccc(NC(=O)C2CCCN(S(=O)(=O)c3ccc(-n4cnnn4)cc3)C2)c1 (stereo not given),2,.,.,.,.,-5,4.6,-4,23,.
COc1ccc(C2c3sc(=O)[nH]c3SC3C4CCC(C4)C23)cc1OC (stereo not given),7,.,.,.,.,-5,-3.1,-3,4,.
COc1ccc(-n2c(SC)nc3sc4c(c3c2=O)CCN(C)C4)cc1,23,i,-2,-8,5.4,9,-28,.,.,5.6
CSCCC(NC(=O)c1ccccc1Br)C(=O)NNC(=O)c1cc(C)oc1C (stereo not given),.,i,11,-1,0.2,.,.,-3,6,-1.8
COC(=O)CSCC(=O)Nc1nnc(-c2ccccc2C)s1,-15,i,13,-4,1.2,-16,?,-9,-3,-0.6
COc1ccc(Cc2nnc(SCC(=O)N(C)c3ccccc3)o2)cc1,-2,i,1,1,-0.8,4,-4.7,-5,-8,3.4
CCn1nc(C)c(CNC(=O)CC2C(=O)NCCN2CC(C)C)c1C (stereo not given),1,i,8,1,-1.8,-5,3.1,4,-9,7.0
COc1ccc(-c2c(C)nn3c(N4CCCCCC4)cc(C)nc23)cc1OC,28,i,-38,-53,-7.8,-4,-2.9,3,.,8.5
Cc1ccc(N2CC(C(=O)Nc3nnc(SCCC4OCCO4)s3)CC2=O)cc1C (stereo not given),-6,i,4,10,4.2,1,1.7,0,17,-0.2
O=C(CSc1nnc(-c2cc3ccccc3cc2O)n1Cc1ccco1)c1ccc(F)cc1,-9,.,.,.,.,22,-1.4,-2,-1,.
COCCN=c1scc(-c2ccc3c(c2)NC(=O)CO3)n1/N=C(\C)c1ccc(O)cc1,-15,i,-10,-10,9.8,6,-6.4,1,?,1.6
O=C(COc1ccc2c3c(c(=O)oc2c1)CCC3)NCCCN1CCCC1=O,-1,i,-1,-8,1.7,12,0.0,0,1,-0.7
Cc1cn(-c2cc(NC(=O)c3ccc(C)c(NC(=O)c4cccc(-c5cn[nH]c(=O)c5)c4)c3)cc(C(F)(F)F)c2)cn1,0,.,.,.,.,34,-3.0,5,-18,.
CCOC(=O)CCSc1nc(C(C)(C)C)cc(C(F)(F)F)c1C#N,3,.,.,.,.,14,1.6,1,-8,.
O=C1N[C@@H](c2ccccc2)COC(=O)[C@H](Cc2ccc(F)cc2)C/C=C\C[C@@H]1CC(=O)N(CCO)Cc1ccccc1,.,i,.,.,.,.,.,2,-1,1.5
Cc1ccccc1-c1nc(CS(=O)(=O)CC(=O)NC(C)c2ccccc2)c(C)o1 (stereo not given),5,i,-6,-12,6.0,12,-2.4,-2,-6,1.4
CC1CCN(C(=O)COC(=O)c2n[nH]c3ccccc23)CC1,-4,.,.,.,.,11,-1.1,0,-6,.
CCc1ccc(N2C(=O)CC(N3CCC(C(=O)OC)CC3)C2=O)cc1 (stereo not given),-12,.,.,.,.,10,-1.1,-6,1,.
O=C(CN=C1NC(=O)C(c2ccccc2)(c2ccccc2)N1)NCc1ccc(F)cc1,9,i,-9,-14,-2.2,18,-8.1,-7,-6,3.0
COc1ccc(Cc2nnc(NC(=O)CSc3ccccc3)s2)cc1,-5,.,.,.,.,17,2.0,.,-2,.
O=C(OCc1ccc(Br)cc1)c1cccnc1Cl,0,i,-16,-19,-1.5,-5,1.4,.,-6,-0.9
Cc1c(C(=O)N/N=C/c2c(O)ccc3ccccc23)nnn1-c1nonc1N,27,i,7,12,-1.4,-2,6.6,86*,.,-0.6
CCCC(=O)Nc1ccc(-c2nc3ncccc3o2)cc1,3,i,12,10,0.4,7,-1.1,-4,3,0.4
O=C(/C=C/c1c(Cl)nc2ccccn12)N1CCN(c2ccccc2F)CC1,4,.,.,.,.,12,9.0,0,-18,2.0
Cc1ccc(C(C(=O)NC(C)(C)C)N(CC2CCCO2)C(=O)CCC(=O)Nc2ccccn2)cc1 (stereo not given),3,i,-2,-1,-1.4,0,4.9,0,.,0.5
CCOC(=O)N1CCN(C(=O)c2cc3sccc3n2C)CC1,1,i,2,-3,1.2,-1,-3.9,-4,-7,-7.5
Cc1cccc(CN2CCC(C(=O)Nc3cccc(-c4cccc(F)c4)c3)CC2)n1,12,i,-11,-40,16,-5,2.9,2,-3,5.1
COC(=O)C(CC(C)C)NC(=O)c1cc(OC)c(OC)c(OC)c1 (stereo not given),0,.,.,.,.,31,?,-1,.,.
Cc1ccc2c(C(=O)CN3CCN(C4CCCCC4)CC3)c(C)[nH]c2c1,23,.,.,.,.,-8,-3.9,-4,-10,.
O=C(CCC(=O)N(CC(=O)NC1CCCC1)Cc1cccs1)Nc1nccs1,2,i,0,-4,0.1,-11,-1.4,-5,.,-1.4

Later entries:
mol,T cruzi inh,FGF22 binding,Ecoli rRNA inh,Ecoli rRNA inh OD600,Ecoli rRNA inh RFP,Calb FLC,RanGTP-Impb inh,Beta cell apopt,ALR inh,AF4-AF9 inh
COc1ccc(/C(O)=C2/C(=O)C(=O)N(CC3CCCO3)C2c2ccc(OC)c(OC)c2)cc1 (stereo not given),-12,.,.,.,.,-3,-4.9,-5,-7,.
O=C(NCCc1c[nH]c2ccccc12)/C(=C\c1cccs1)NC(=O)c1ccccc1,9,i,-18,-5,-2.1,-8,-2.5,0,-2,5.4
C=CCNC(=O)CCCC(=O)NCC=C,-6,.,.,.,.,-5,-2.4,2,1,.
O=C(COC(=O)c1ccccc1-n1cnnn1)c1ccc(F)c(F)c1,-3,i,10,13,0.7,-9,3.0,-4,.,-0.7
NC(=O)c1nsc(C(=O)N(CC(=O)NC2CCCC2)Cc2ccc3c(c2)OCO3)c1N,-10,i,10,6,0.2,-5,3.4,-4,.,-0.1
CS/C(N)=N/S(=O)(=O)c1ccc(NC(C)=O)cc1,-2,i,8,8,2.8,-5,-0.8,-2,.,-1.5
Cc1c(NC(=O)CSc2nnnn2-c2ccc(O)cc2)c(=O)n(-c2ccccc2)n1C,-22,.,.,.,.,-8,-0.4,-4,-6,.
CCC(C)(C)NC(=O)C(c1cccc(OC)c1OC)N(C(=O)CCC(=O)Nc1cc(C)on1)c1ccc2c(c1)OCCO2 (stereo not given),4,i,8,9,-0.2,18,-1.4,3,.,0.9
